# A1 inh: inhibitors of the anti-apoptotic protein A1, read as caspase activation | MEF A1-2A-BIM cells, Caspase-Glo 3/7 luminescence, 3 h; percent of clofoctol response, vehicle zero | caspase activation, % (test concentration not listed) | 330,000 compounds, 0.066% hits | AID 2462;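 active = over half of replicate activation scores above 10%, or exactly half above 10 with the replicate mean above 10; inconclusive = replicate mean below 10 yet half the replicates above 10; inactive = over half of replicates below 10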;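 also: wells of about 30 µL received 50 nL stock; many hits fall short of the cut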
# Beta2AR agonist: activates human beta-2 adrenergic receptor causing internalization; AID 504454; P07550; 340,000 compounds, 0.43% hits; response, % (concentration not given with the values); Am2.2-beta2AR cells, FAP receptor internalization, flow cytometry; reference of the scale not given here;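 active = response above a set limit, near 3 SD of response in nonfluorescent compounds, cut at about 42% in these data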;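 also: stock transfer was 100 nL into about 11 µL; a reference agonist was the positive control; negative values mostly stem from fluorescent compounds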
# Target sequence (P07550 whole entry, looked up): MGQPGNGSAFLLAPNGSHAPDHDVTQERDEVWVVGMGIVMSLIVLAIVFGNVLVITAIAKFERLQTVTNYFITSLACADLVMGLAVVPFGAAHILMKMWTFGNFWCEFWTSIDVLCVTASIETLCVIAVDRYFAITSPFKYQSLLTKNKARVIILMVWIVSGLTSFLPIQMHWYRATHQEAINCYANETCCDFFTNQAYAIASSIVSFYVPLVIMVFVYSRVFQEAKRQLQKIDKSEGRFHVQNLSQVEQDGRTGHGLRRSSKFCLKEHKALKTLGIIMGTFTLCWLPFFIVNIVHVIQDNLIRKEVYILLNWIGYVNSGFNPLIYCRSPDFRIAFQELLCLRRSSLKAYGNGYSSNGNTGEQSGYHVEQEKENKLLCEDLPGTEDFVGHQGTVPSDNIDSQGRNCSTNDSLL
# Beta cell apopt: beta cell apoptosis inhibition. INS-1E cytokine-induced death, ATP luminescence, 48 h; percent of positive-control rescue, neutral wells zero. protection from apoptosis, % (no concentration beside the values). 300,000 compounds, 0.8% hits. AID 435005;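 active = all replicates at 75% or more, or half of them and the mean; inconclusive = half reach 75% but not the mean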;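 also: 0% = cytokine-treated negative control wells and 100% = positive control rescue; higher means more ATP so stronger rescue from cytokine killing; wells of about 40 µL received 100 nL stock; the first replicate is given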
# ALR H2O2 inh: human ALR oxidase inhibition via reduced H2O2; 290,000 compounds, 3.8% hits; purified ALR, DTT oxidation, H2O2 HRP-luminol luminescence; inhibition, % (test concentration not listed); P55789; AID 485317;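 active = mean and each replicate at 75% or more; inconclusive = only one of the two met; inactive = neither met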;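 also: stock transfer was 7.5 nL into about 7.5 µL; 0% = neutral wells and 100% = wells with inactivated enzyme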
# Target sequence (P55789 whole entry, looked up): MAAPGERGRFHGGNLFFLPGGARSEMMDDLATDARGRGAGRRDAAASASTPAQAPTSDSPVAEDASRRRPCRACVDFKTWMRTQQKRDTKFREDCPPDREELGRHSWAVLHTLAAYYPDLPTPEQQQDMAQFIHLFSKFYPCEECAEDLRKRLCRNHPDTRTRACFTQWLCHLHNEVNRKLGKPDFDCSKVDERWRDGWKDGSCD
# LANA-H2A inh: blocks KSHV LANA binding to histone H2A/H2B | cell-free LANA-H2A/H2B peptide, fluorescence polarization | 320,000 compounds, 0.6% hits | Q9QR71 | AID 2629 | inhibition, % (no concentration beside the values); in the data active = inhibition mostly above about 10%, no sharp cut-off; inactive = mostly below about 6.7%;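 also: stock transfer was 7.5 nL into about 10 µL; 0% = median of vehicle wells and 100% = median of positive control wells; one replicate is shown; the record names a cut of 25% in any replicate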
# Calb FLC: C. albicans growth modulation with fluconazole | AID 1979 | 300,000 compounds, 0.57% hits | growth inhibition, % (test concentration not listed) | C. albicans CaCi-2 (fluconazole-resistant clinical isolate) + fluconazole, Alamar Blue growth, 48 h;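 active = most replicates above 75%; inconclusive = exactly half above 75%; inactive = most below 75%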;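 also: all wells also contain fluconazole at 8 µg/ml as a sub-toxic cotreatment; 0% = median of DMSO wells and 100% = median of geldanamycin control wells; wells of about 8 µL received 7.5 nL stock; the first replicate is given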
# T cruzi inh: blocks replication of Trypanosoma cruzi | 300,000 compounds, 1.4% hits | inhibition, % (test concentration not listed) | T. cruzi beta-gal in NIH3T3, luminescence, 90 h;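 active = mean inhibition across valid replicates above about 55%, limit read from the data; inconclusive = mean below that limit but half or more replicates reach it; inactive = mean below it, under half of replicates reach it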;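 also: signal also drops with host cell toxicity which is not excluded here; 0% = plate median of DMSO wells and 100% = zero luminescence signal; higher percent means less beta-gal luminescence so fewer parasites; stock transfer was 50 nL into about 50 µL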
# rRNA inh HTS: inhibitors of bacterial rRNA selective over humanized ribosomes. E. coli WT GFP vs humanized-ribosome RFP mutants, fluorescence, 24 h; hits give low values; DMSO median 0, no signal -100. GFP signal change (wild-type ribosome), % (no concentration beside the values). 350,000 compounds, 1.6% hits. AID 720706;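 active = significant combined selectivity score with lowered wild-type GFP, culture density cut under 30%, mutant RFP and density less affected; inactive = any of these conditions unmet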; also: one replicate is shown; some compounds called inactive have numbers as strong as hits
# rRNA inh HTS OD600: also measured in rRNA inh HTS; calls as there; OD600 change, %; measured here: OD600 growth;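 optical density of the mix in the first replicate; 0 = DMSO median and -100 = no signal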
# rRNA inh HTS RFP: also measured in rRNA inh HTS; calls as there; RFP signal change, %; measured here: RFP humanized mutant strains;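 first replicate; 0 = DMSO median and -100 = no signal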
# Numbers without * were called inactive; i = inactive; ? = inconclusive; . = no result given. This is a subset; count on the stated rates, not on these rows.
# Values run as follows: T cruzi inh	Calb FLC	A1 inh	rRNA inh HTS RFP	LANA-H2A inh	rRNA inh HTS	Beta2AR agonist	ALR H2O2 inh	Beta cell apopt	rRNA inh HTS OD600
- Cc1ccc(Cl)cc1NC(=O)COC(=O)C1CC1
  1	-22	0.3	5.0	-1.2	16	10	1	-8	18
- Cc1ccc(NC(=O)c2sc(N)nc2-c2ccccc2)cc1C
  4	-1	0.1	-7.5	13	-50	-6	0	0	-65
- Cc1ccc(CN2CCSc3sccc3C2=O)cc1
  -10	6	0.5	-4.4	3.0	-24	3	18	-11	-31
- CCN(c1ccccc1)S(=O)(=O)c1cc(NC(=O)CSc2n[nH]c(=O)[nH]c2=O)ccc1Cl
  1	?	0.7	-0.4	4.2	-10	17	4	0	-2
- O=C(c1cc(-c2ccccc2)nc2ccccc12)N1N=C(C(F)F)CC1(O)C(F)F (stereo unspecified)
  20	40	0.5	-33	2.9	-54	-3	-4	5	-80
- CN(C)/C=C1\Oc2ccc3ccccc3c2C1=O
  -7	43	1.8	4.4	2.1	12	-6	59	-4	-7
- COc1ccccc1CNC(=O)C(NS(=O)(=O)c1cccc2nsnc12)C(C)C (stereo unspecified)
  -2	0	0.8	-6.2	5.5	5	7	-2	4	-1
- CS(=O)(=O)N1CCN(c2ccccc2NC(=O)Nc2cccc(Cl)c2)CC1
  -7	-2	0.1	-0.1	3.0	-3	3	35	-2	-6
- Cc1ccc(NC(=O)c2cc(N3C(=O)C=CC3=O)ccc2Cl)cc1C
  5	-1	0.2	.	0.5	.	79*	0	.	.
- O=C(NC(Cc1ccccc1)C(=O)O)/C(=C/c1ccc(F)cc1)NC(=O)c1ccccc1 (stereo unspecified)
  -10	4	0.6	-3.1	0.4	5	1	4	-1	4
- COc1ccc(S(=O)(=O)Nc2cccc(NC(C)=O)c2)cc1
  -22	6	-0.1	0.6	3.0	-2	-7	-12	5	0
- CCC12CC3CC(C1)CC(C(=O)Nc1nn[nH]n1)(C3)C2
  -14	-7	0.5	1.3	2.3	-4	-3	0	-1	-2
- Clc1ccc2nc(CSc3ncn[nH]3)cn2c1
  0	3	0.0	1.2	-1.2	8	-8	3	0	17
- CC(C)C(OC(=O)c1cccs1)C(=O)NC1CCCCC1 (stereo unspecified)
  -13	-27	0.7	.	0.9	.	0	-9	2	.
- CCOC(=O)CN1C(=O)N[C@@H](CCc2ccccc2)C(C(C)=O)=C1C
  -4	-5	-0.2	-0.1	-3.6	7	.	-6	0	14
- Cc1cc(NC(=O)c2ccc(NC(=O)C3CCCO3)cc2)ccc1Br (stereo unspecified)
  11	-4	-1.4	1.2	2.7	-9	11	5	5	-10
- COc1cccc(C(=O)Nc2ccccc2C(=O)N2CCCC2)c1
  10	-6	-0.2	.	-3.8	.	0	13	-9	.
- O=C(COC(=O)c1ccc(Oc2ccccc2)cc1)Nc1nnc(-c2ccccc2)o1
  -25	30	0.5	.	-2.6	.	1	-5	-3	.
- CC(=O)c1c(C)[nH]c(C(=O)N(C)C(c2ccccc2)c2ccccc2)c1C
  11	0	-0.3	-3.1	-4.7	0	-27	4	5	-10
- O=C1OCCC1Sc1nnc(-c2cccs2)n1Cc1ccccc1 (stereo unspecified)
  -13	14	-1.0	5.6	-3.0	-7	-1	0	-3	0
- COc1cccc(NC(=O)c2ccco2)c1
  -17	-9	-12	.	-2.0	.	7	-3	-1	.
- COc1ccc(CCNC(=O)COC(=O)/C=C/c2cccs2)cc1OC
  -3	-5	-0.2	6.2	-3.4	-14	20	0	-2	0
- CCC(C)(C)c1nnc(NC(=O)c2ccc([N+](=O)[O-])cc2)s1
  -6	-16	-0.8	.	2.4	.	-3	-3	9	.
- COCCNC(=O)C(OC(=O)c1cccs1)c1ccc(F)cc1 (stereo unspecified)
  -16	-4	0.1	0.5	-0.7	17	1	-3	-4	13
- CN1C(=O)[C@@H]2[C@H](C1=O)[C@@H]1C(=O)Nc3ccccc3C(=O)N1[C@@H]2c1ccc(Br)cc1
  7	2	0.7	0.3	-3.1	2	-4	-10	-8	2
- Cc1ccccc1NC(=O)NC1(C(=O)N2CCCC2)CCCCC1
  -1	0	0.2	.	2.3	.	0	0	-6	.
- COc1ccc(/C=C/C(=O)NNC(=O)c2cc(C)oc2C)cc1
  6	3	0.0	0.3	0.1	-4	-3	.	1	1
- CC(=O)N1CCC(=NNc2ccc(S(N)(=O)=O)cc2[N+](=O)[O-])CC1
  -2	15	0.3	-2.8	0.1	4	-5	-6	-4	-1
- COc1ccc(Cl)cc1C(=O)Nc1cccnc1
  -17	11	-0.9	-4.8	-0.9	3	4	-2	-8	-3
- CCN(CCNC(=O)C1CC(=O)N(CCc2ccccc2)C1)c1ccccc1 (stereo unspecified)
  -1	0	-0.1	.	-2.0	.	-4	99*	1	.
- CN1CC(=O)N(CC(=O)NCc2ccc(F)cc2)c2ccccc2C1=O
  -16	2	1.5	.	6.7	.	2	-1	1	.
- O=C(Nc1ccc(SC(F)F)cc1)c1cc(-c2ccncc2)nc2ccccc12
  .	.	2.0	0.1	3.1	-8	0	.	13	-1
- O=C1CC(N2CCC(O)(c3ccc(Br)cc3)CC2)C(=O)N1c1ccc(Cl)cc1 (stereo unspecified)
  -13	?	0.4	11	3.6	-16	-2	5	-2	-19
- CC(C)(C)NC(=O)COC(=O)c1ccc(F)cc1Cl
  -5	0	0.5	0.3	9.2	-5	-1	2	.	-2
- CCOC(=O)c1ccc(NC(=O)CCc2nnc3ccc(N4CCN(C)CC4)nn23)cc1
  2	-9	0.3	2.8	10	5	0	-6	-9	8
- Cc1nn(-c2ccccc2)c(Cl)c1/C=C1/C(=N)N2N=C(C(C)C)SC2=NC1=O
  1	18	-0.3	7.4	7.8	3	3	6	-5	12
- CCOC(=O)C1CCN(C(=O)CSCc2nc(-c3ccc(OCC)cc3)oc2C)CC1
  -4	-4	-0.4	.	-1.0	.	1	99*	2	.
- CN(CCCC(=O)Nc1ccc(Br)cc1F)S(=O)(=O)c1ccccc1
  9	-4	-0.3	-1.2*	3.1	-22*	-1	8	0	-17*
- N#Cc1ccccc1OCC(=O)NCc1ccccc1CN1CCCC1
  .	.	-0.3	.	-7.6	.	-7	.	6	.
- CCOC(=O)C1CCN(C(=O)CN2C(=O)CSc3ccc(S(=O)(=O)N4CCOCC4)cc32)CC1
  -12	3	1.1	-1.5	-1.4	6	-4	2	0	-6
- CC12CCC(=O)N1C(C(=O)Nc1ccc(Cl)c(Cl)c1)CS2 (stereo unspecified)
  5	2	-0.7	-1.1	-4.1	-1	-2	-2	-1	-10
- CN1CCCC(OC(=O)c2cc(Br)ccc2Cl)C1 (stereo unspecified)
  -8	-4	0.0	-1.4	1.0	6	8	-6	5	3
- Nc1c(-c2cccc(Cl)c2)cnn1-c1cccc([N+](=O)[O-])c1
  6	-26	0.5	.	0.7	.	-2	?	1	.
- CC(C)Cc1nnc(NC(=O)CCC(=O)N2CCCCC2)s1
  6	6	0.5	-2.2	2.1	-2	0	0	3	5
- CCOC(=O)c1ccc2ncc(C(=O)OCC)c(Nc3ccc(N4CCOCC4)cc3)c2c1
  21	8	-0.9	23	-4.1	-11	-2	6	33	2

# Next section, overlapping the part above by 2 compounds.
# Values run as follows: T cruzi inh	Calb FLC	A1 inh	rRNA inh HTS RFP	LANA-H2A inh	rRNA inh HTS	Beta2AR agonist	ALR H2O2 inh	Beta cell apopt	rRNA inh HTS OD600
- CC(C)Cc1nnc(NC(=O)CCC(=O)N2CCCCC2)s1
  6	6	0.5	-2.2	2.1	-2	0	0	3	5
- CCOC(=O)c1ccc2ncc(C(=O)OCC)c(Nc3ccc(N4CCOCC4)cc3)c2c1
  21	8	-0.9	23	-4.1	-11	-2	6	33	2
- Cc1sc2ncnc(SCC(=O)Nc3ccc(CN4CCCC4)cc3)c2c1C
  .	.	1.5	3.6	2.6	-4	14	.	2	-3
- CC1CC(C)CN(CCCNS(=O)(=O)c2cc(Br)cc3c2N(C(=O)C2CC2)CC3)C1 (stereo unspecified)
  -9	-4	0.4	1.2	4.2	2	-32	0	3	2
- CCOC(=O)CSc1cc(-c2ccccc2)nc2ncnn12
  6	18	-0.5	-4.6	-6.5	2	-9	.	.	5
- CCC(C)(C(=O)NC1CCCCC1)N(C(=O)C1CCC(=O)N1)c1ccc(C)cc1 (stereo unspecified)
  .	.	-0.7	.	-3.4	.	-3	-3	.	.
- CCc1ccc(C(=O)COC(=O)c2cc([N+](=O)[O-])ccc2NCCO)cc1
  10	2	0.6	-4.4	5.1	-36	-13	-2	-2	-58
- Cc1ccc(C)c(OCCC(=O)NNC(=O)c2ccccc2F)c1
  2	-3	0.2	1.5	i	6	0	-7	-1	-2
- CC1CCCCN1CCNC(=O)c1cc2c(-c3ccccc3F)nn(C)c2s1 (stereo unspecified)
  36	2	0.7	6.9	-1.4	-7	-9	-7	-1	4

# Of the compounds above, four have an NH in an aromatic ring.
# Values run as follows: T cruzi inh	Calb FLC	A1 inh	rRNA inh HTS RFP	LANA-H2A inh	rRNA inh HTS	Beta2AR agonist	ALR H2O2 inh	Beta cell apopt	rRNA inh HTS OD600
- CCN(c1ccccc1)S(=O)(=O)c1cc(NC(=O)CSc2n[nH]c(=O)[nH]c2=O)ccc1Cl
  1	?	0.7	-0.4	4.2	-10	17	4	0	-2
- CCC12CC3CC(C1)CC(C(=O)Nc1nn[nH]n1)(C3)C2
  -14	-7	0.5	1.3	2.3	-4	-3	0	-1	-2
- Clc1ccc2nc(CSc3ncn[nH]3)cn2c1
  0	3	0.0	1.2	-1.2	8	-8	3	0	17
- CC(=O)c1c(C)[nH]c(C(=O)N(C)C(c2ccccc2)c2ccccc2)c1C
  11	0	-0.3	-3.1	-4.7	0	-27	4	5	-10

# Assay outcomes deposited in PubChem by several laboratories.
